# Calb biofilm kill: mixture kills Candida albicans biofilm cells. C. albicans biofilm persisters + clotrimazole, fluorescence viability; primary screen in compound mixtures of four per well. inhibition, % at 7.6 µM. hit rate 0.02% among 120,000;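 active = inhibition above 30.3% in the primary screen of four-compound pools, then above 30% when the compound was retested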;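 also: compounds exposed to preformed 24 h biofilms for 48 h; the number belongs to the whole pool; some results filed as inactive read as strong as hits; inactives centre near 12; 0% = biofilm with clotrimazole alone and 100% = kill control; retested singly at about 60 µM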
#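 Assay system: C. albicans biofilms / Medium: RPMI/MOPS medium, pH 7.0 / Schedule: biofilm formation 24 h, compound exposure 48 h, 37 °C / Measured by: Alamar Blue fluorescence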
# Active calls of the source: *. The list is partial, so the mix of outcomes need not match the whole.
Compound | Calb biofilm kill
CN(C)/N=C/c1ccc(Sc2ccccc2[N+](=O)[O-])o1 | 4.9
CC(=O)Oc1c(C)cc(Cl)cc1C(=O)Nc1ccc([N+](=O)[O-])cc1Cl | 6.2
CC(Oc1ccc(Cl)cc1Cl)C(=O)NCCC1=CCCCC1 (stereo unspecified) | 25.9
COCCOc1ccc(C(F)(F)F)cc1NC(=O)c1ccc(C)cc1 | 12.0
Cc1nc(NS(=O)(=O)c2ccccc2)sc1C(C)(C)C | -0.8
O=c1c(Cl)c(Cl)cnn1Cc1ccc(F)cc1 | 34.1
O=C(O)CC12CC3CC(C1)CC(n1ncc(N4CCC5(CC4)OCCO5)c(Cl)c1=O)(C3)C2 | 23.0
Cc1ccccc1CS(=O)(=O)CCC(=O)O | 15.2
C/C(Cn1nc([N+](=O)[O-])cc1C)=N\NC(=O)COc1c(Cl)cc(Cl)cc1Cl | -7.3
COc1ccc([N+](=O)[O-])cc1N(CC(=O)NCCCOC(C)C)S(C)(=O)=O | 7.5
O=C(O)c1ccc(-n2ccnc2)c([N+](=O)[O-])c1 | 10.8
CCN(CC)C(=O)C[n+]1ccc(C(N)=O)cc1 | 11.5
CC(=O)O[C@@H]1C[C@H]2C(C)(C)C(=O)C=C[C@]2(C)[C@H]2CC[C@@]3(C)[C@H](c4ccoc4)OC(=O)[C@H]4O[C@]43[C@@]21C | 7.1
NNC(=O)c1ccc(CN2CCCCC2)o1 | -4.1
CC1CCCC(NCC(=O)Nc2ccc(C(N)=O)cc2)C1C (stereo unspecified) | 16.0
S=C(Nc1ccc(Br)cc1Cl)NC1CCN(Cc2ccccc2)CC1 | 9.8
Cc1cc([N+](=O)[O-])nn1CC(=O)Nc1sc2c(c1C(N)=O)CCCC2 | -0.5
COc1cccc(-c2ccc(SCC(=O)N3CCc4ccccc43)nn2)c1 | 4.2
COCCCNC(=S)N/N=C/c1ccc(OC)cc1 | 8.4
COc1ccc(CCNS(=O)(=O)c2cc(C(=O)O)c(Cl)cc2Cl)cc1 | -2.6
CCc1ccc(/C=N/N2CCN(c3ccccn3)CC2)cc1 | 18.0
O=C(NCCc1c[nH]c2ccccc12)C(=O)NCC1OCCCN1S(=O)(=O)c1ccccc1 (stereo unspecified) | 9.4
Cc1ccc(Cn2nc(C)c(NC(=O)c3nn(C)cc3Cl)c2C)cc1 | 15.8
CCOC(=O)Cc1nc2ccccc2n(CC#N)c1=O | 7.6
CC(=O)Nc1ccc(/C=C(\C#N)C(=O)NCc2ccccc2)cc1 | 17.6
CC(C)Cn1c(SCC(=O)Nc2cccc(S(N)(=O)=O)c2)nc2ccccc2c1=O | 16.2
O=C(Oc1ccccc1)c1cc2ccccc2oc1=O | 18.0
Cc1nn2c(=S)[nH]nc2[nH]c1=O | 12.2
O=C(CS(=O)c1ccccc1[N+](=O)[O-])Oc1ccc(Br)cc1 (stereo unspecified) | 13.5
O=C(c1cccc(S(=O)(=O)Nc2ccccc2F)c1)N1CCN(c2ccccc2F)CC1 | 8.0
Cn1cccc1CC(=O)NNC(=O)Nc1cccc(Cl)c1 | 17.7
Cc1ccnc(NC(=O)c2ccc(Cl)c(NC(=O)C(C)Oc3ccccc3)c2)c1 (stereo unspecified) | 23.0
O=C(C1=C[C@@H]2[C@H]3C(=O)N(c4cccc(Cl)c4)C(=O)[C@H]3[C@@H](C(=O)c3ccc(Cl)cc3)N2C=C1)c1ccccc1 | 11.8
COc1ccccc1CCC(=O)Nc1ccc(C)cc1Cl | 15.9
S=C(NCCc1ccccc1)NCc1ccccc1Cl | 16.3
CCC(=O)NC(=S)Nc1ccc(NC(=O)COc2ccc([N+](=O)[O-])cc2)cc1 | 8.5
Cc1c(C(=O)NC2CCCc3ccccc32)oc2ccc(S(=O)(=O)N3CCCCC3)cc12 (stereo unspecified) | 15.1
CC(C)(C)NC(=O)c1ccccc1NC(=O)c1ccc2c(c1)OCO2 | -1.6
C=CCSc1nc2c(cnn2-c2ccccc2)c(=O)n1N | 14.7
CC(=O)Oc1c(C)c(=O)n(C)c2ccccc12 | -6.6
CCN(CC)C(=O)Cn1cc(S(=O)(=O)CC(=O)NCCc2ccc(OC)c(OC)c2)c2ccccc21 | 8.0
CCCN1C(=O)/C(=C\C=C2\N(CC)c3ccccc3C2(C)C)SC1=S | 18.4
O=C(O)CN(CCO)CCN(CC(=O)O)CC(=O)O | 8.3
COc1cc(C(=O)NNC(=O)c2ccc(NC(C)=O)cc2)cc(OC)c1OC | 9.9
COc1ccc(CCC(=O)N(C)CC(=O)Nc2ccc(N3CCOCC3)cc2)cc1 | 30.8
C=C(C)CNC(=S)Nc1cccc(S(=O)(=O)NC2=NCCC2)c1 | 21.1
O=S1(=O)N=C(N/N=C/C=C/c2ccccc2)c2ccccc21 | 7.8
N#Cc1cccc(NC(=O)CN2C(=O)NC(Cc3ccccc3)C2=O)c1 (stereo unspecified) | 3.5
COc1ccc(S(=O)(=O)ON=C2CC(C)(C)N(C(C)=O)C(C)(C)C2)cc1 | 7.5
COc1cccc(/C=C/C(=O)OCC(=O)c2ccc3c(c2)NC(=O)CO3)c1OC | 4.4

# (cont.)
Compound | Calb biofilm kill
O=c1c([N+](=O)[O-])c(N2CCCC2)c2ccccc2n1-c1ccccc1 | 14.5
COc1cc(NC(=O)COC(=O)c2ccc(C)c(S(=O)(=O)N3CCCCC3)c2)c(C)cc1[N+](=O)[O-] | 13.1
C/C=C(\C)C(=O)NCCN1C2=NC[C@H](C(C)C)N2C[C@H]1Cc1ccc(O)cc1 | -1.5
COC(=O)Cc1ccc(NC(=S)NCCCN2CCOCC2)cc1 | 6.3
CC(=O)Nc1cc2cc(NS(=O)(=O)c3ccc(Cl)cc3)ccc2oc1=O | 16.3
COc1ccc(CCCc2nnc(SCc3nc4ccccc4c(=O)[nH]3)n2C)cc1C | 14.5
CCOc1cc(CNC2CCCC2)c(Cl)cc1OCC(=O)Nc1ccccc1 | -3.6
O=C(c1ccccc1)c1cc(Cl)ccc1N1C(=O)C=CC1=O | 13.7
O=C1c2ccc([N+](=O)[O-])cc2C(=O)N1c1ccc(Cl)cn1 | 24.9
Cc1n[nH]c(C)c1S(=O)(=O)N1CCCC(C(=O)NCc2ccc(F)cc2)C1 (stereo unspecified) | 14.9
Cc1ccc(N2C(=O)N(Cc3ccccc3C)c3ccccc3S2(=O)=O)cc1 | 1.1
CCN(CC)S(=O)(=O)c1ccc(N2CCOCC2)c(NC(=O)Cc2ccccc2)c1 | 7.9
O=C(O)CSc1nnc(-c2ccccc2)c(-c2ccccc2)n1 | 14.6
COc1ccc(NC(=O)CSc2ccc3nnc(-c4cccnc4)n3n2)c(OC)c1 | 11.3
Cc1ccc(NC(=O)COC(=O)c2ccco2)cc1 | 30.6
CCOc1ccc2nc(SCC(=O)Nc3ccc4c(c3)OCO4)sc2c1 | 21.5
O=C(O)c1ccc(N=NNc2cccc([N+](=O)[O-])c2)cc1 | 15.8
CN(C)c1ccc(S(=O)(=O)N(C)C)cc1[N+](=O)[O-] | 4.4
CC(C)[C@H](Nc1ncnc2c1oc1ccccc12)C(=O)O | 27.1
CNC(=O)/C(C#N)=C\c1ccc(CNS(=O)(=O)c2ccccc2)o1 | 24.8
COc1ccc(CNC(=O)COC(=O)CCC(=O)c2cccs2)cc1 | 14.6
COc1ccc(NC(=S)Nc2ccccc2)cc1 | 20.2
Cc1nc(N2CCOCC2)nc(N2CCC(C)CC2)c1[N+](=O)[O-] | 6.2
COc1ccccc1OC(=O)CCN1c2ccccc2Sc2ccccc21 | 12.1
COc1cc(NC(=O)c2cccs2)ccc1NC(=O)c1cc2ccccc2o1 | 2.1
COc1ccc(NC(=O)Nc2ccc(F)c(Cl)c2)cc1 | 5.5
Cc1c(S(=O)(=O)Nc2ccc3c(c2)OCCO3)cnn1C | 10.7
COC(=O)C(NC(=O)c1cccnc1Cl)C(C)C (stereo unspecified) | 12.2
O=C(N/N=C/c1ccco1)c1cc(C2CC2)[nH]n1 | 16.1
O=C(NCc1csc(-c2cccs2)n1)Nc1cccc(Cl)c1 | 15.4
C#CC(C)(C)NC(=S)NC1CC2C=CC1C2 (stereo unspecified) | 15.2
O=S(=O)(NC1CCCCC1Oc1ccccc1)c1ccc(Cl)cc1 (stereo unspecified) | 11.2
CC1CC(C)(C)NC(=S)N1CCC(=O)NCCc1ccc(Cl)cc1 (stereo unspecified) | 8.8
Nc1cc(-c2ccc(Br)cc2)nc2cc(-c3ccccc3)nn12 | 11.6
O=c1[nH]c(CSc2nc3ccccc3[nH]2)nc2c1cnn2-c1ccccc1 | 12.1
CC(=O)N(c1ccccc1)c1nnc(-c2cnc(C)cn2)s1 | 21.4
O=c1[nH]nc(SCCS(=O)(=O)c2ccc(F)cc2)n1-c1ccccc1 | 22.2
O=Cc1c[nH]c2ncccc12 | 17.6
N#Cc1ccc(C(=O)OCC(=O)Nc2ccc(N3CCOCC3)cc2)cc1 | 14.0
Nc1nc(SCC(=O)Nc2cc(S(=O)(=O)N3CCOCC3)ccc2Cl)n[nH]1 | 14.5
COc1ccc([N+](=O)[O-])cc1NC(=S)NC(C)=O | -7.2
Cc1ccc(/C=N/n2c(-c3cccnc3)n[nH]c2=S)o1 | 36.0
COc1ccc(NC(=O)C2C(c3ccccc3)C2(Cl)Cl)cc1 (stereo unspecified) | 7.3
O=C(NCC(c1cccs1)N1CCOCC1)c1cc(-c2ccccn2)nc2ccccc12 (stereo unspecified) | 16.4
COc1ccc(/C=C/C(=O)NCCCc2ccccc2)cc1OC | 12.1
C/C(=N\NC(=O)CNc1cccc(Cl)c1C)c1cccs1 | 29.0
CC1CCCCN1C(=S)Nc1ccc2nc3n(c(=O)c2c1)CCCCC3 (stereo unspecified) | 14.2
CN1CCN(c2ccc(CNS(=O)(=O)Cc3cccc(C(F)(F)F)c3)cc2)CC1 | 17.3
Cc1nn(-c2ccccc2)c2nc(-c3cccs3)cc(C(=O)NN)c12 | 7.8
CCOC(=O)C1=C(C)NC(=O)NC1c1ccc(Br)o1 (stereo unspecified) | 8.8

# Next section
Compound | Calb biofilm kill
Cc1cc(NC(=O)CSc2ncnc3sc(C)c(C)c23)no1 | 8.2
O=C(NCCC1=CCCCC1)C1CCC(CNc2nc(=S)[nH]c3ccccc23)CC1 (stereo unspecified) | 20.8
Cc1cc(C(=O)N2CCCC(CNS(=O)(=O)c3cccs3)C2)nn1C (stereo unspecified) | 10.9
O=C(COC(=O)c1ccc(Br)o1)NC1CCCCC1 | -5.4
CCOC(=O)N1CCC(NC(=O)c2ccc(CO)c(C(=O)NC3CCN(C(=O)OCC)CC3)c2)CC1 | 17.6
CCSC(=Nc1ccccc1)Nc1ccccc1 | 20.0
CS(=O)(=O)ON=C1CCN(S(=O)(=O)c2ccccc2)CC1 | 9.1
Cc1nn(-c2ccc(F)cc2)c(Cl)c1/C=C/C(=O)OCC(=O)Nc1ccc(F)cc1F | 34.5
Cc1ccc(NC(=O)COc2cccnc2[N+](=O)[O-])cc1S(=O)(=O)N1CCCCC1 | 8.6
CCc1ccccc1NC(=S)N(CCc1ccncc1)C(C)C | 12.4
COc1cccc(OC(=O)N2CCOCC2)c1 | 0.1
O=C(O)C1CCC(=O)N1C(=O)OCc1ccccc1 (stereo unspecified) | 9.7
O=C(CN1CCN(S(=O)(=O)c2ccc(Br)cc2)CC1)N/N=C/c1cccs1 | 21.4
CN(C)S(=O)(=O)c1cccc(NC(=O)COC(=O)CCSc2ccc(Cl)cc2)c1 | 10.2
Cc1ccc(NC(=O)CCOc2ccccc2C)cc1F | 9.4
O=C(Nc1nnc(C2CC2)s1)C1Cc2ccccc2CN1C(=O)c1ccco1 (stereo unspecified) | 21.0
Cc1nn(Cc2nnc(SCC(=O)Nc3ccc(Cl)cc3)n2C)c(C)c1[N+](=O)[O-] | 26.6
COc1ccc(/C=C(\NC(=O)c2ccc([N+](=O)[O-])cc2)C(=O)N2CCOCC2)cc1 | 9.4
COc1ccc(C(=O)CN2CC(C)SC2=Nc2ccc(Cl)cc2)cc1 (stereo unspecified) | 10.1
COc1ccc(Cl)c2c1[nH]c1nc(SCc3ccccn3)nnc12 | -2.1
COc1cc(/C=N/NC(N)=O)ccc1OCC(=O)Nc1cc(C)c(C)cc1Br | 14.1
CC(=O)Nc1ccc(S(=O)(=O)NC2=NCN(C)CN2)cc1 | 22.5
O=C(CSc1nc2ccc([N+](=O)[O-])cc2s1)NC1CCS(=O)(=O)C1 (stereo unspecified) | 12.1
COC(=O)c1sc2ccccc2c1NC(=O)c1coc2ccccc2c1=O | 10.3
CC(C(=O)N1c2ccccc2CCc2ccccc21)n1nnc(-c2ccc(N(C)C)cc2)n1 (stereo unspecified) | 12.4
O=C(CCCCCN1C(=O)c2cccc3cccc(c23)C1=O)NCCO | 9.8
Cc1ccc(-n2c(SCC(=O)NCc3ccco3)nc3c([nH]c4ccccc43)c2=O)cc1 | 9.2
COc1cccc(/C=N/NC(=O)C[n+]2ccccc2)c1O | 9.7
CCCN1CCC(=O)N(CCSc2ccc(NC(C)=O)cc2)CC1 | 12.4
CCNC(=O)c1cc2ccccc2o1 | 7.7
O=C(Cn1nnc(-c2ccccc2)n1)N/N=C/c1cccc([N+](=O)[O-])c1 | 11.7
COC(=O)C1C(=O)C2=C(CC1C)NC(=O)CC2c1ccc(F)cc1 (stereo unspecified) | 6.7
O=C(O)c1ccc(CSc2nnc(-c3ccncc3)n2-c2ccc(Br)cc2)cc1 | 10.0
Cc1ccc(C)c(NC(=O)CCC(=O)N/N=C/c2ccc3c(c2)OCO3)c1 | 11.8
CCn1ncc(NC(=S)NCCc2ccccc2)c1C(N)=O | 18.1

# Arranged by SMILES length (falling): part of the list above.
Compound | Calb biofilm kill
O=C(Cn1nnc(-c2ccccc2)n1)N/N=C/c1cccc([N+](=O)[O-])c1 | 11.7
Cc1ccc(C)c(NC(=O)CCC(=O)N/N=C/c2ccc3c(c2)OCO3)c1 | 11.8
CCNC(=O)c1cc2ccccc2o1 | 7.7

# Screening results (PubChem)
